Bioassay records from PubChem BioAssay.
PKD1 inh: blocks activity of human protein kinase D1 | 0.056% of 200,000 active | PKD1 kinase fluorescence polarization assay | inhibition, %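 (about 10 µM by stock and volumes)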;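 active means inhibition of 50% or more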;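 further: controls were vehicle for no effect and a reference inhibitor for full effect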
RGS16-Gao HTS: modulates binding between human RGS16 and Galphao; bead-based flow cytometry RGS16-Galphao binding, fluorescence; actives lie on both sides; binding response (% of control), % at 10 µM; 0.38% of 220,000 active; AID 1441;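 active means below 25% or above 175%, edge rows of some plates excepted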;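 further: Galphao activated by GDP with aluminum fluoride before binding; 100% = wells without compound and 0% = beads without RGS; some results beyond the cut were filed as inactive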
Target sequence (O15492 whole entry, looked up): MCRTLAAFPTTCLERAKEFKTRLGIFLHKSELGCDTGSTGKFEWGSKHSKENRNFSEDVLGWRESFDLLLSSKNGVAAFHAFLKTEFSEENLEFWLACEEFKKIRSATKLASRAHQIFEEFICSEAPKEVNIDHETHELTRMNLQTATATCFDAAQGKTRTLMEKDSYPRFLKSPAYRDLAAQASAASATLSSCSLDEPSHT
Target sequence (P09471 whole entry, looked up): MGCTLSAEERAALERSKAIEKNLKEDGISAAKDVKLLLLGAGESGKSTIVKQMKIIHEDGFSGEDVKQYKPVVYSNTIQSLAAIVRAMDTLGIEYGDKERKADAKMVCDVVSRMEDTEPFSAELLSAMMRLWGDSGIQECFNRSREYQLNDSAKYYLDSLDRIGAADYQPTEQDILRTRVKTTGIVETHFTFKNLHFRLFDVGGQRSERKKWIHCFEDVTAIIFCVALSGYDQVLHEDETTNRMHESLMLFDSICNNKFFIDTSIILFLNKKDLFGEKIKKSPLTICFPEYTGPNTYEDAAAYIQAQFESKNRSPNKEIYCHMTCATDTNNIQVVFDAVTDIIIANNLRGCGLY
GALR2 ag: GALR2 (human) receptor agonism; GALR2-expressing cells, agonist activation read-out; AID 803; 0.48% of 140,000 active; O43603; activation, %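 (tested at 5 µM)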;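 active means above mean plus 3 SD of all compounds, about 5% in these data, not always enough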;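 further: 0% = vehicle buffer wells and 100% = reference agonist at full effect; tested in CHO reporter cells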
Target sequence (O43603 whole entry, looked up): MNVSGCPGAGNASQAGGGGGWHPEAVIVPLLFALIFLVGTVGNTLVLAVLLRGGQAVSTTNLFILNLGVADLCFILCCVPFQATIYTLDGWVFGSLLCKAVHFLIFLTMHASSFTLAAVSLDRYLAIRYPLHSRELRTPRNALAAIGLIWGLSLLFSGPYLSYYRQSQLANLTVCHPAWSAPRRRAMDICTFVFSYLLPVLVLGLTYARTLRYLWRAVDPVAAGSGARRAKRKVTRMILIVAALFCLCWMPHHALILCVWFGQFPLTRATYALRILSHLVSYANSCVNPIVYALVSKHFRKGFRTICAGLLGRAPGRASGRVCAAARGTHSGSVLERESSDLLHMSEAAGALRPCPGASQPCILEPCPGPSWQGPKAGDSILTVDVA
INS promoter inh: TRM-6 insulin promoter activity inhibition; TRM-6 cells (human fetal islet line), insulin promoter-eGFP reporter, imaging; reporter expression induced with tamoxifen; inhibition, % at 2 µM; 0.9% of 130,000 active;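 active means inhibition above the mean plus 3 SD, with well images judged a real hit on visual review, cut at about 60% in these data, passing the limit was not always enough; inconclusive means inhibition over the cutoff but images rejected on review; inactive means inhibition not above the cutoff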
HSV replic up: increases HSV replication in cells; HSV replication augmentation in cells, fold increase; maximum fold increase; 0.005% of 220,000 active; AID 1956;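 active means peak rise of 1.5-fold or more in the series; inconclusive means self-fluorescent or not available for retest; tested in PC3 cells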;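 further: first round at 10 µM; read as green reporter fluorescence; hits show the peak of a series up to 25 µM; 1 = signal of infected wells without compound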
INS promoter inh cell count: also measured in INS promoter inh; calls as there; normalized cell count, %; measured here: cell count, toxicity; reference of the scale not given here;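 cells exposed to compound for 48 h; stained nuclei by imaging scaled within each plate; lower means fewer cells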
HSV replic up primary fold: second read-out of HSV replic up, no call of its own (marks repeat the call); fold increase; compound at 10 µM; measured here: primary screen fold increase 10 uM; tested in PC3 cells;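 GFP signal in the first replicate; 1 = infected wells without compound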
Starred values were filed as active, the others as inactive; i = inactive; ? = inconclusive; / = no result given.

mol,PKD1 inh,RGS16-Gao HTS,GALR2 ag,INS promoter inh,INS promoter inh cell count,HSV replic up,HSV replic up primary fold
O=C(/C=C/c1ccco1)NC(=S)Nc1ccc(N2CCCC2)cc1,2,5,-0.9,18,67,i,0.88
CC1CCCCN1S(=O)(=O)c1ccc(S(=O)(=O)N2CCN(c3ccc(F)cc3)CC2)cc1 (centres undefined),-9,101,-4.0,43,84,i,0.75
COc1ccc(C(=O)OCC(=O)N2CCCC2=O)c(OC)c1,-7,103,/,41,95,i,1.1
Cc1sc2ncnc(OCC(=O)N3CCN(S(=O)(=O)c4ccc(Cl)cc4)CC3)c2c1C,-5,100,0.7,41,123,i,1.1
Cc1nc(=O)cc(-c2ccccc2)n1-c1ccccc1,1,101,-3.2,38,124,i,0.96
CCCCCOc1ccc(CSCCNC(=S)Nc2ccccc2)cc1,5,133,0.5,-12,82,i,0.89
COc1cc2c(cc1OC)C(C(=O)Nc1cc(OC)c(OC)c(OC)c1)C(c1cccnc1)N(C)C2=O (centres undefined),1,68,/,-27,70,i,0.95
COC(=O)c1sccc1NC(=O)Nc1cccc(F)c1,-9,99,/,-19,118,i,1.1
CNc1nc2cccnc2s1,/,89,/,/,/,i,1
CC1CC2(C)CC(C)C1(COC(=O)Nc1ccccc1)CO2 (centres undefined),2,88,/,/,/,i,1.1
CC(Sc1nnnn1C)C(=O)Nc1ccc(Oc2ccccc2)cc1 (centres undefined),-3,104,0.0,-22,48,i,0.99
C=CCn1c(SCC(=O)N2CCc3ccccc3C2)nc2sc(CC)cc2c1=O,-11,128,-2.2,/,/,i,1.1
O=c1c2sccc2[nH]c(=S)n1-c1ccccc1,/,100,/,/,/,i,0.98
O=C(COC(=O)CCC(=O)c1cccs1)NCc1cccs1,/,97,/,/,/,i,1
CCN(CC)P1(=O)OC(c2cc(OC)c(OC)c(OC)c2)=Nc2c1c(C)nn2-c1ccccc1 (centres undefined),-5,99,-1.3,/,/,i,0.92
O=C(COC(=O)C1COc2ccccc2O1)NC(=O)NC1CCCCC1 (centres undefined),1,97,-5.5,28,124,i,1
COC(=O)CSc1ccc(S(=O)(=O)N2CCOCC2)cc1[N+](=O)[O-],0,86,0.1,/,/,i,0.92
CC1CCCCC1NC(=O)CN1C(=O)CSc2cc(S(=O)(=O)N3CCCCCC3)ccc21 (centres undefined),-3,115,-1.4,-78,77,i,0.93
COc1cc(NC(C)=O)c2ncccc2c1[N+](=O)[O-],-3,101,0.4,50,155,/,/
Cc1ccccc1C(=O)c1c[nH]c(C(N)=O)c1,0,101,-3.0,24,73,i,0.99
CCP(=O)(CC)C(C)(C)CP(=O)(c1ccccc1)c1ccccc1,5,103,-1.2,33,125,i,0.79
C/C(CC(=O)Nc1ccc(Cl)cc1Cl)=N\NC(=O)C(=O)N1CCCC1,-3,101,/,-23,65,i,1
Fc1ccc2c(c1)C(c1ccncc1)=NNC(c1ccc(Cl)cc1)=N2,-6,113,-1.1,-62,83,i,0.76
O=C(CN(CCN1CCOCC1)C(=O)Cn1nnc(-c2ccc(F)cc2)n1)NC1CCCCC1,-8,104,-1.6,-30,110,i,0.95
O=C(NNC(=O)C1CC1)c1cc2cc3ccccc3nc2s1,-5,104,/,/,/,i,1
CCOC(=O)c1[nH]c2ccc(OC)cc2c1NS(=O)(=O)c1ccc(OC)cc1OC,10,82,-0.6,33,122,i,1
CCOc1ccc(S(=O)(=O)Nc2cc(Sc3ncn[nH]3)c3oc(=O)sc3c2)cc1,2,105,-1.3,-10,88,i,0.95
O=C(COC(=O)c1ccccc1NC(=O)c1ccccc1)c1cccc([N+](=O)[O-])c1,-4,106,-1.3,/,/,i,1.2
CCn1c2c(c3cc(OCC(C)C)ccc31)CCCC2=O,12,103,-1.7,71,99,i,0.76
COCCNC(=O)C1CC2Cn3c(nc4ccccc43)C2N1C (centres undefined),/,98,/,/,/,i,0.7
Cc1nn(-c2ccccc2)c(Oc2ccc(F)cc2)c1/C=N/n1cnnc1,-15,101,-3.3,/,/,i,0.6
O=C(NCCOc1ccc(Cl)cc1)C1CCCCC1,0,94,/,/,/,i,0.98
CCOn1c(=O)c[n+]([O-])c2ccccc21,2,110,/,48,43,?,/
CCOC(=O)c1cnc(N2CCN(C(=O)OCC)CC2)[nH]c1=O,-1,106,/,0,143,i,0.9
c1nc(N2CCOCC2)c2sc3nc(N4CCOCC4)c4c(c3c2n1)CCCC4,5,/,-0.1,35,88,/,/
CCOC(=O)C(C(=O)NCCCN1CCOCC1)C1CCCCC1 (centres undefined),-7,100,-1.3,-312,81,i,0.93
O=c1[nH][nH]c(C(F)(F)F)c1C=NCc1ccc(Cl)cc1,0,100,-0.4,-40,90,i,0.93
Cc1cc(C)n(-c2ccc(C(=O)Oc3ccc4c(c3)OCO4)cc2)n1,5,116,-0.2,25,171,i,0.91
C=CCNC(=O)C12CC3(C)CC(C)(CC(C)(C3)C1)C2,-1,104,5.2,17,106,i,1.2
Oc1ccc(Cl)cc1C1=NNC(c2ccc(Cl)cc2)C1 (centres undefined),5,103,2.7,52,148,i,1
CN(C1CCCCC1)S(=O)(=O)c1cccc(C(=O)OCC(=O)NC2CCCc3ccccc32)c1 (centres undefined),6,104,-1.4,17,126,i,0.97
COc1cc2c(=O)n(CCCN3CCOCC3)c(=S)[nH]c2c(OC)c1OC,6,101,-0.6,/,/,i,0.86
COc1cc2c(cc1OC)C(C(=O)Nc1ccc3c(c1)OCCO3)C(c1cccnc1)N(C)C2=O (centres undefined),-7,101,-2.6,20,111,/,/
O=C(Nc1ccc(Cl)cn1)C1C(c2ccccc2)C1(Cl)Cl (centres undefined),1,97,/,0,75,i,1.2
COc1cc(/C=N/NC(=O)CSc2ccccn2)ccc1OC(C)C,/,102,/,/,/,i,0.96
Cc1onc(-c2ccccc2Cl)c1C(=O)N1CCN(c2nc3ccccc3s2)CC1,-2,100,-1.9,-44,25,i,0.93
Cc1cc(C)cc(-n2c(C)cc(C=C(C#N)C#N)c2C)c1,-4,107,-2.9,/,/,i,0.98
COC(=O)CCCNC(=O)c1ccc(OC2CCN(CCc3ccccc3)CC2)cc1,-4,111,/,-5,114,i,0.91
COc1ccc(CC(=O)Nc2c3c(nn2-c2cccc(C)c2C)CS(=O)C3)cc1 (centres undefined),-12,96,-1.9,-70,124,i,1
O=C1OCC(Cn2c3ccccc3c3ccccc32)O1 (centres undefined),0,103,-2.6,/,/,i,0.66

6 entries drawn at random from those above:
mol,PKD1 inh,RGS16-Gao HTS,GALR2 ag,INS promoter inh,INS promoter inh cell count,HSV replic up,HSV replic up primary fold
Cc1cc(C)cc(-n2c(C)cc(C=C(C#N)C#N)c2C)c1,-4,107,-2.9,/,/,i,0.98
O=C1OCC(Cn2c3ccccc3c3ccccc32)O1 (centres undefined),0,103,-2.6,/,/,i,0.66
COc1cc2c(cc1OC)C(C(=O)Nc1ccc3c(c1)OCCO3)C(c1cccnc1)N(C)C2=O (centres undefined),-7,101,-2.6,20,111,/,/
Cc1cc(C)n(-c2ccc(C(=O)Oc3ccc4c(c3)OCO4)cc2)n1,5,116,-0.2,25,171,i,0.91
C=CCNC(=O)C12CC3(C)CC(C)(CC(C)(C3)C1)C2,-1,104,5.2,17,106,i,1.2
c1nc(N2CCOCC2)c2sc3nc(N4CCOCC4)c4c(c3c2n1)CCCC4,5,/,-0.1,35,88,/,/

Additional results
mol,PKD1 inh,RGS16-Gao HTS,GALR2 ag,INS promoter inh,INS promoter inh cell count,HSV replic up,HSV replic up primary fold
CN(/C(=N/S(=O)(=O)c1cccs1)c1ccccc1)c1ccccc1,-15,98,-0.6,/,/,i,0.98
CCOC(=O)N1CCN(Cc2cc(=O)oc3ccc(Cl)cc23)CC1,8,102,-2.2,37,91,i,0.75
CC(C)(O)C#Cc1ccc(C(=O)N2CCN(c3ccc([N+](=O)[O-])cc3)CC2)cc1,-6,101,/,/,/,i,0.87
CCOc1ccccc1C(=O)Nc1ccsc1C(=O)OC,-8,97,-1.1,-86,15,i,0.66
C=CCn1c(C)cc(C(=O)CSc2nnc(NC(C)C)s2)c1C,-1,104,-1.9,-10,126,i,1.1
N#Cc1ccc(OCc2nnc3n2CCCCC3)cc1,-3,102,/,/,/,i,0.96
CCOc1ccc2nc(Cl)c(CN(C(=O)c3cnccn3)C3CCCC3)cc2c1,-7,100,/,-87,87,i,0.93
COc1ccc2sc(NC(C)=O)nc2c1,-8,95,-3.0,79*,100*,i,0.9
COCCOc1nc2ccccc2nc1C,-5,103,-1.0,-4,186,i,1
O=C(CSc1cccc(C(F)(F)F)c1)NC(=O)NCc1ccco1,-6,94,-0.7,-198,68,i,0.86
O=C(Nc1ccc(NC(=O)c2ccccc2Cl)nc1)c1ccncc1,7,107,/,/,/,i,1
COc1ccc(C(=O)Cn2c(Br)nc3c2c(=O)n(C)c(=O)n3C)cc1,-7,119,-1.5,/,/,i,0.94
Cc1cccc[n+]1CC(=O)N1c2ccccc2Sc2ccccc21,-2,102,/,/,/,i,1.1
CCN(CC)S(=O)(=O)c1ccc(N2CCCC2)c(NC(=O)CC(C)(C)C)c1,/,86,/,/,/,i,0.93
O=C(O)c1ccc(CNC(=O)c2ccc(Br)o2)cc1,2,85,0.1,9,111,i,1.1
COc1ccc(/C=N/N2CCN(C3c4ccccc4-c4ccccc43)CC2)cc1O,-5,102,-1.3,-26,90,i,0.99
O=C(CCN1CCOCC1)c1ccccc1,-3,97,-3.2,6,110,i,1.1
CCC(C)NCCOCCOc1ccc(Br)cc1C (centres undefined),-14,100,-1.2,-8,120,i,0.78
Cc1cc(=O)[nH]c(SCc2cc(Cl)ccc2OC(F)F)n1,-10,102,-0.1,/,/,i,1
Cn1c(N)c(C(=O)c2cc(-c3ccccn3)nc3ccccc23)c(=O)[nH]c1=O,-1,103,-0.6,/,/,i,0.9
c1ccn2c(SCc3ccc4c(c3)OCO4)nnc2c1,-6,102,3.6,/,/,i,1
CCNC(=O)c1nc[nH]c1C(=O)NCC,-11,96,-2.2,11,155,i,1.1
CC(Sc1nnnn1C)C(=O)Nc1ccc2c(c1)OCCO2 (centres undefined),-3,103,/,29,133,i,1
Cc1cc(=O)[nH]c(SCC(=O)NNC(=O)Cc2ccccc2)n1,5,108,/,/,/,i,0.92
CN(C)Cc1n[nH]c(=O)c2ccccc12,0,99,/,/,/,i,1
Cc1ccc(OCCCCN(C)Cc2ccccc2)c(Br)c1,4,101,-0.7,40,73,i,0.82
O=C(NCCCc1ccccc1)Nc1ccccc1,-9,105,0.4,17,117,i,0.84
CCOC(=O)C1CCCN(c2c(NCCCN(C)c3ccccc3)c(=O)c2=O)C1 (centres undefined),1,147,-1.1,/,/,i,0.94
COCc1nnc(NC(=O)CSc2ccccc2)s1,-6,101,-1.3,14,96,i,1.1
Cc1ccc2nc(SCC(=O)Nc3ccc4c(c3)CCC4)[nH]c2c1,-13,102,-1.2,27,146,i,0.76
